D2 PAM – human D2 receptor positive allosteric modulation. P14416. DiscoveRx D2 beta-arrestin cells, luminescence, 90 min; 100% = 57 uM dopamine signal. potentiation, % (test concentration not listed). 0.23% of 360,000 active. AID 624464; active = potentiation of 50% or more; inconclusive = 30% to 50%; inactive = 30% or less;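 note: compound concentration not given in the record; tested on top of an EC20 dose of dopamine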
Target sequence (P14416 whole entry, looked up): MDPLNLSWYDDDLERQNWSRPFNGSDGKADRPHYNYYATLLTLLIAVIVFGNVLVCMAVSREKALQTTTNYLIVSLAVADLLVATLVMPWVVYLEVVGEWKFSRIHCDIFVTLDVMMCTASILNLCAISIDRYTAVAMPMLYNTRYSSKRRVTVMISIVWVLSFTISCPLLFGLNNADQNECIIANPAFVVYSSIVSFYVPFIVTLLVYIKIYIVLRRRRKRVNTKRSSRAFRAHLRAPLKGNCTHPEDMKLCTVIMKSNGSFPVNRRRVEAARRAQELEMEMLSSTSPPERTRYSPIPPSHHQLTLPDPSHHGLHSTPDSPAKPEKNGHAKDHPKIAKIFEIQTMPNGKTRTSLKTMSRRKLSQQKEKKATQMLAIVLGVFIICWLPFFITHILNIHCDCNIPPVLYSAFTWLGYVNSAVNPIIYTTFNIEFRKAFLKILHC
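PathHunter beta-arrestin assay in DiscoveRx D2 cells. Compounds were added with an EC20 of dopamine (50 nM final) for 90 min at 37 deg C. Luminescence was read 1 h after detection reagent, with 57 uM dopamine as the EC100 control.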
TRPML1 agonist – human mucolipin-1 channel agonism; Q9GZU1; TRPML1-expressing cells, Ca2+ dye fluorescence, FDSS; host cell line not named in the record; reference of the full effect not given here; activation, % (no concentration beside the values); 0.12% of 410,000 active; AID 624414; in the data active = activation above about 50%; inconclusive = about 30% to 50%; inactive = below about 30%; note: 0% is about no effect; the text of the record puts the active cut at 80%
Target sequence (Q9GZU1 whole entry, looked up): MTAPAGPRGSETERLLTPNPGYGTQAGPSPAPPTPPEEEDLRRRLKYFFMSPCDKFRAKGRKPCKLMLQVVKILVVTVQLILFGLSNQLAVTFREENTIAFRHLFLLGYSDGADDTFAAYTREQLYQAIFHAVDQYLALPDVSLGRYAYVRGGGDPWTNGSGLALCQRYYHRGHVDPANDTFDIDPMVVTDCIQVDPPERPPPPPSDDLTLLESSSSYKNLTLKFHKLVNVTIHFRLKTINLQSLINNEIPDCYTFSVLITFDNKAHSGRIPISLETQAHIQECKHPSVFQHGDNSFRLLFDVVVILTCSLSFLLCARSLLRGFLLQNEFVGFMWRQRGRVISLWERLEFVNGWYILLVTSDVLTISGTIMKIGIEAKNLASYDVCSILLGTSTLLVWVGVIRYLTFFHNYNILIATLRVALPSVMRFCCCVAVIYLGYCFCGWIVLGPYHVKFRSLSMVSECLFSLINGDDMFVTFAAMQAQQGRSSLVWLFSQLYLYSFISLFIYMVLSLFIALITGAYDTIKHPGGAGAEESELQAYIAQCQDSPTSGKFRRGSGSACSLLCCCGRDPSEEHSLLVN
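Calcium fluorescence on an FDSS kinetic reader gave the read-out. Tet-induced TRPML1-DL cells were plated overnight, dye-loaded (Ca8 with quencher, 45-90 min, room temperature, dark), then read 110 s after compound addition, and again 110 s after 4uM final 54-4 (EC80).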
TRPML1 inh – inhibitors of human TRPML1 channel. 0.02% of 390,000 active. AID 624415. TRPML1-inducible cells, Ca2+ dye fluorescence, FDSS; active compounds read low; inhibition of EC80 agonist-evoked calcium signal. Q9GZU1. activity change, negative = inhibition, % (concentration not given with the values); in the data active means activity change below about -50%; inconclusive means about -30% to -50%; inactive means above about -30%;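 note: stimulus is agonist 54-4 at its EC80 concentration; % is set by controls: 0 for no effect and ±100 for the full control effect; the text of the record puts the active cut at -80%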
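Tet-induced TRPML1-DL cells loaded with Ca8 no-wash calcium dye were read kinetically on FDSS. Compound addition was followed by EC80 agonist 54-4 (4 uM final); inhibition was read over 110 s.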
Six1-Eya2 inh – blocks human Six1 binding to Eya2. 0.56% of 360,000 active. activity change, % (no concentration beside the values). AlphaScreen GST-Six1/His-Eya2 binding, biochemical; active compounds read low; control for the full effect not named in the record; in the data active = activity change below about -65%; inconclusive = about -30% to -65%; inactive = above about -30%; note: % is set by controls: 0 for no effect and ±100 for the full control effect
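Six1/Eya2 binding was read as AlphaScreen signal after compounds were pinned into GST-Six1 plus His-tagged Eya2 (5X stock 250/500 nM) in pH 8.0 Tris/NaCl/TCEP buffer, beads added, then incubated 1 h, 37 C, dark.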
PINK1 expr mod – modulators of PINK1 expression; Potency, µM (titrated, usually from 76.6 µM), without a hit: at the highest dose activation (PINK1 increase), usual class: activators; 0.2% of 410,000 active; PINK1 immunofluorescence, high-content cytometry, 24 h; active = well fitted activation curve with a large enough effect; inconclusive = small, poorly fitted or top-dose-only effect; inactive = flat fitted curve, though single readings scatter; cell line not stated here;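 note: potency is the fitted concentration of half-maximal effect; % of control where 0% means no effect; nearly all actives have a fitted effect of over 65% in size; a mitochondrial uncoupler was the plate control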
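PINK1 protein, normally rapidly degraded, was detected by immunofluorescence after 24 hour compound treatment of a stable cell line. Titration data (5 concentrations) came from laser-scanning cytometry, with CCCP-treated wells as controls.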
D2 ag – agonists of human D2 dopamine receptor (beta-arrestin); DiscoveRx PathHunter D2 beta-arrestin, luminescence, 90 min; 100% = 57 uM dopamine signal; 0.084% of 360,000 active; AID 624465; activation, % (no concentration beside the values); in the data active = activation above about 40%; inconclusive = about 15% to 40%; inactive = below about 15%; note: compound concentration not given in the record; the text of the record calls up to 30% inactive
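DiscoveRx PathHunter D2 beta-arrestin cells (2,100/well) attached overnight, then compound-stimulated 90 min at 37 C in HBSS/10 mM HEPES/0.1% Tween-20 buffer; beta-galactosidase complementation read by luminescence after 1 h at ambient temperature. Dopamine 57 uM final (EC100) as control.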
The depositor's hits bear a star; ? = inconclusive; nt = not tested or not shown; [ ] = dose if it differs, or a comment. Outcome played no part in choosing rows (roughly 1% active in at least one column).

SMILES | D2 PAM | TRPML1 agonist | TRPML1 inh | Six1-Eya2 inh | PINK1 expr mod | D2 ag
Cc1csc(NC(=O)CSc2nc(C(C)C)nc3ccccc23)n1 | 3.2 | 1.2 | 11.3 | 2.2 | 0.0% | 6.2
Cc1ccc(-c2nc3ncccc3o2)cc1NC(=O)C(C)C | 0.9 | -0.1 | 5.2 | 4.5 | 1.5% | -2.0
Oc1c(Cl)cc(Cl)cc1C(C#Cc1ccccc1)N1CCOCC1 (configuration not stated) | 3.3 | -0.7 | 26.9 | -11.1 | -0.4% | -2.1
CCOc1ccc(NC(=O)CSc2nc3ccsc3c(=O)n2CCC(=O)O)cc1 | -18.6 | -0.1 | 5.7 | -3.0 | -1.2% | -3.7
Cc1cc(=O)oc(C)c1C(=O)NC1CCCCCCC1 | -2.1 | -0.2 | 29.9 | -0.1 | -0.9% | -0.9
CCCOc1ccc(F)cc1-c1cc(C(=O)Nc2ccc(C)c(NS(C)(=O)=O)c2)[nH]n1 | -9.5 | -0.9 | nt | 2.5 | 16.1% | 8.8
CSc1nc(NC(C)C)nc(N2CCOCC2)n1 | -2.8 | 0.2 | 1.8 | 12.1 | 1.7% | 0.9
CN(C)n1cccc1/C=C(\C#N)S(=O)(=O)c1cccc(Cl)c1 | -10.0 | 3.1 | 14.0 | 1.1 | 5.3% | 4.6
Cc1ccc(Cl)c2c1N[C@@H](c1ccc(C(=O)O)cc1)[C@H]1CC=C[C@@H]21 | nt | -0.6 | 15.0 | nt | -0.2% | nt
CCOc1ccc(NC(=O)CN(C)C(=O)c2cc([N+](=O)[O-])ccc2N2CCCCC2)cc1OCC | -11.9 | 2.5 | 2.2 | -14.2 | 1.3% | 1.2
Cc1ccc(F)cc1C(=O)N1CCCCC1c1cc(C(=O)Nc2ccccc2)no1 (configuration not stated) | -3.3 | -0.8 | nt | -6.3 | 3.1% | -4.5
COc1ccc(C2CC(=O)C=C(NC3CCCC3)C2)cc1 (configuration not stated) | 8.1 | -0.6 | -0.7 | 4.0 | -1.0% | -2.0
c1ccc2nc3c(nc2c1)OCC1CCCCN31 (configuration not stated) | -7.8 | -0.3 | -14.3 | 4.7 | -0.3% | -1.3
CCOC(=O)c1cccc(NC(=O)c2cncc(Br)c2)c1 | -17.6 | 1.2 | -27.1 | 12.0 | -0.1% | 5.4
CSc1ncccc1C(=O)NC1CC(C)(C)Cc2c1cnn2-c1ccccc1C (configuration not stated) | -9.7 | -0.8 | 1.0 | 3.7 | 2.8% | -0.6
COc1ccc(C=C2SC(=S)N(CCCC(=O)Nc3ccc(C(=O)O)c(O)c3)C2=O)cc1OC | 0.4 | 0.5 | -14.7 | -23.0 | 2.1% | -7.2
CC(C)(C)C(=O)OCc1nc(-c2ccc(O)c(O)c2)cs1 | 70.4* | 1.8 | 3.5 | -14.5 | 0.4% | 78.0*
Cc1cc(C(=O)CSc2nnnn2-c2ccccc2)c(C)n1CCc1ccccc1 | 14.7 | 2.2 | -8.8 | 1.9 | 7.1% | 3.7
CC1=C(C#N)C(C(F)(F)F)(C(F)(F)F)N=C(c2ccco2)N1 | -2.3 | 1.5 | 11.9 | 1.9 | 6.8%[38.3 µM] | 4.3
COc1cccc(CN(CC(=O)NC2CCCC2)C(=O)c2csnn2)c1 | -8.2 | -0.3 | 22.3 | 0.0 | 0.4% | -4.3
O=C(COC(=O)c1cc(S(=O)(=O)N2CCOCC2)ccc1Cl)NCc1ccccc1 | -1.5 | -0.2 | -11.3 | -0.5 | 2.0% | 0.8
Cc1nn(-c2ccc(F)cc2F)c(=O)c2noc(C)c12 | 5.7 | 1.0 | -28.9 | 2.6 | -1.2% | 1.9
CC#C[C@@H](CC)c1ccc2ccn(C)c2c1 | -3.9 | 0.3 | 6.3 | ? | 6.8% | -0.2
CC(C)(CNC(=O)c1ccc(S(=O)(=O)Nc2ccccc2F)cc1)N1CCOCC1 | -20.1 | -0.6 | -18.6 | 8.0 | -1.1% | -6.1
Cc1ccc(NNC(=O)c2cc(C(C)(C)C)nn2Cc2ccccc2)cc1 | -23.0 | -0.1 | -8.0 | -11.3 | 9.3% | -3.3

Going on with the list.
SMILES | D2 PAM | TRPML1 agonist | TRPML1 inh | Six1-Eya2 inh | PINK1 expr mod | D2 ag
O=C(O)CCn1[nH]c(=O)ccc1=O | -8.8 | -0.3 | 31.8 | 7.5 | -0.4% | -1.5
CC(C)N(C(=O)Cn1c(=O)oc2ccccc21)c1ccccc1 | -3.0 | nt | nt | 8.0 | 0.7% | -2.0
COc1ccc(CCNC(=O)CN2CCN(c3cccc(C(F)(F)F)c3)CC2)cc1 | -32.3 | 1.2 | 12.3 | -7.4 | nt | 1.0
CCCCNC(=O)N(C)c1nc2ccccc2s1 | 2.9 | -1.5 | -3.5 | 0.8 | 5.4% | 1.2
CC(OC(=O)C1=COCCO1)C(=O)NC1CCCCC1 (configuration not stated) | -6.3 | -0.4 | 5.6 | 9.6 | 0.2% | -1.3
C/C(CC(=O)Nc1ccc(C)cc1C)=N\NC(=O)C(C)C | -3.9 | 0.4 | 11.6 | 12.3 | 2.1% | -0.5
O=C(NC1CCCCC1)c1ccc2c(c1)sc1nc(-c3ccc(F)cc3)cn12 | nt | -0.9 | 16.8 | nt | 0.9% | nt
Cc1cc(C)nc(/N=C(\N)Nc2ccc(-c3ccccc3)cc2)n1 | -15.8 | ? | 13.5 | -0.4 | ? | -7.5
CC(=O)Oc1ccccc1-c1nc(C)nc(N(C)C(C)=O)n1 | -7.0 | -0.3 | -8.3 | 2.6 | -2.6%[38.3 µM] | -0.9
COc1cccc(N2C(=O)C3C(C2=O)C3(c2ccccc2)c2ccccc2)c1 (configuration not stated) | -6.8 | 1.7 | 20.4 | 3.8 | 3.5% | -2.3
COc1cccc(/C=N/NC(=O)c2ccc3nc[nH]c3c2)c1O | -6.9 | nt | nt | -86.8* | -0.4% | -2.7
CN(c1ccccc1)S(=O)(=O)c1ccc(C(=O)Nc2ccncc2)cc1 | -12.8 | 0.5 | 53.1 | 7.0 | -1.5% | -6.9
COc1ccc(-c2cc(C(=O)Nc3ccc(S(=O)(=O)Nc4ncccn4)cc3)c3ccccc3n2)cc1 | -7.6 | 1.8 | 35.7 | 0.6 | 0.1% | -3.4
COC(=O)CSc1nnc(Cc2ccccc2)n1-c1ccc(C)cc1 | -3.0 | -1.0 | 7.8 | 2.0 | -0.8% | -3.4
COc1ccccc1NS(=O)(=O)c1ccc(NC(=O)c2nc3ncccn3n2)cc1 | 5.5 | -0.6 | -8.7 | -11.7 | -0.3% | -3.2
O=C(CN(Cc1ccco1)C(=O)Cn1nnc(-c2cccs2)n1)NCc1ccccc1 | -16.8 | 2.1 | 1.8 | -3.4 | nt | -2.1
O=C(Cc1ccc(Br)cc1)NC1CCCc2ccccc21 (configuration not stated) | -7.1 | 2.3 | 12.2 | -0.7 | 9.3% | 1.5
CC(=O)c1ccc(NC(=O)c2cc(C)nn2-c2ccccc2)cc1 | nt | 0.2 | -17.4 | nt | -0.5% | nt
Cc1ccc(-c2noc(CN(C(=O)c3cccs3)C(C)C)n2)cc1 | 0.4 | 2.8 | 19.2 | 6.8 | nt | -1.6
COc1ccc(Cl)cc1NC(=O)c1cc2c(s1)-c1ccccc1OC2 | nt | -0.8 | 2.9 | nt | 0.1% | nt
Cc1ccc(S(=O)(=O)NCC(C)NS(C)(=O)=O)cc1 (configuration not stated) | -12.3 | -1.4 | -9.6 | 0.1 | -1.9% | -2.1
CCOc1ccc(C(C(=O)NC2CCCC2)N(C(=O)CNC(=O)c2ccco2)c2cccnc2)cc1 (configuration not stated) | -6.9 | 0.2 | 1.1 | -3.7 | 0.3% | -0.4
O=C(NC1CCCCC1)C1CCN(S(=O)(=O)c2cccc3nonc23)CC1 | -5.5 | 0.3 | 7.0 | 6.7 | 0.4% | -2.1
COc1cccc(CNC(=O)CCC2CCCN(C(=O)CCn3cncn3)C2)c1 (configuration not stated) | -5.2 | -0.7 | 3.1 | -6.2 | -0.3% | -4.3
O=C(O)c1cccc2c(-c3ccccc3)c(-c3ccccc3)[nH]c12 | 1.2 | 1.2 | -18.8 | -1.6 | -3.9% | 0.3

The list goes on.
SMILES | D2 PAM | TRPML1 agonist | TRPML1 inh | Six1-Eya2 inh | PINK1 expr mod | D2 ag
CCOC(=O)c1c(NC(=O)c2cc(-c3ccc(Cl)s3)nc3ccccc23)sc(C(N)=O)c1C | -18.2 | 0.5 | -23.7 | -1.7 | 6.3% | -2.7
O=C(OCc1cccc2ccccc12)C1CC(=O)N(c2ccccc2)C1 (configuration not stated) | -4.5 | 2.4 | 2.6 | -1.6 | -2.9% | -2.4
Cc1cc(C)c(Cn2c3ccccc3c3cnn(CC(=O)NCCCc4ccccc4)c(=O)c32)c(C)c1 | nt | -0.5 | 10.8 | nt | 2.7% | nt
Cc1nc(OCc2ccccc2)c2sc3nc4c(cc3c2n1)COC(C)(C)C4 | 19.9 | -0.1 | 4.6 | 1.2 | 2.3% | -3.6
CC1(C)CC(=O)C(C=NCCC2=CCCCC2)=C(O)C1 | 3.6 | 0.4 | 0.2 | 6.2 | nt | 2.2
Cc1ccc(S(=O)(=O)N2CCCCC2)cc1NC(=O)CNCc1ccco1 | 12.8 | -1.0 | -4.1 | 5.3 | -0.6% | ?
Cc1cc(C)cc(-n2ccnc2SCC(=O)c2c(N)n(C3CC3)c(=O)[nH]c2=O)c1 | -3.4 | 0.5 | 14.1 | -18.4 | 0.8% | 4.4
COc1cccc(OC)c1C(=O)Nc1ccc(C(=O)c2ccncc2)cc1 | -5.3 | 0.1 | 5.4 | -7.1 | 4.2% | -2.2
CC1=C(C(=O)Nc2ccccc2C)C(c2cccs2)n2nc(SCc3ccccc3)nc2N1 (configuration not stated) | nt | 0.0 | -17.4 | nt | 14.3% | nt
Cc1cnc(C(=O)Nc2ccc(F)cc2)cn1 | 3.1 | -0.8 | -1.3 | 3.5 | -2.7% | 0.3

Structures above with a Cl atom (6):
SMILES | D2 PAM | TRPML1 agonist | TRPML1 inh | Six1-Eya2 inh | PINK1 expr mod | D2 ag
Oc1c(Cl)cc(Cl)cc1C(C#Cc1ccccc1)N1CCOCC1 (configuration not stated) | 3.3 | -0.7 | 26.9 | -11.1 | -0.4% | -2.1
CN(C)n1cccc1/C=C(\C#N)S(=O)(=O)c1cccc(Cl)c1 | -10.0 | 3.1 | 14.0 | 1.1 | 5.3% | 4.6
Cc1ccc(Cl)c2c1N[C@@H](c1ccc(C(=O)O)cc1)[C@H]1CC=C[C@@H]21 | nt | -0.6 | 15.0 | nt | -0.2% | nt
O=C(COC(=O)c1cc(S(=O)(=O)N2CCOCC2)ccc1Cl)NCc1ccccc1 | -1.5 | -0.2 | -11.3 | -0.5 | 2.0% | 0.8
COc1ccc(Cl)cc1NC(=O)c1cc2c(s1)-c1ccccc1OC2 | nt | -0.8 | 2.9 | nt | 0.1% | nt
CCOC(=O)c1c(NC(=O)c2cc(-c3ccc(Cl)s3)nc3ccccc23)sc(C(N)=O)c1C | -18.2 | 0.5 | -23.7 | -1.7 | 6.3% | -2.7
